YjeE inh: qHTS Assay for Inhibitors of YjeE; purified YjeE, fluorescence polarisation of a bound ADP probe; 71,000 compounds, 0.05% hits; Potency, µM; AID 605, 2007; active = well fitted falling curve; inconclusive = weaker or top-dose-only fall, or a rising curve; inactive = flat or poorly fitted curve;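 further: top concentration of the series not given in the record; excess ADP was the control for the full effect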
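Purified YjeE (10 uM) with BODIPY Texas Red-labeled ADP probe (2 uM); compounds pin-transferred, 15 min at room temperature. Binding inhibition read as decreased fluorescence polarization; ADP titration as control.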
PK Bst: Pyruvate Kinase; partly purified Bacillus stearothermophilus pyruvate kinase, luminescence ATP production; ribose 5-phosphate activator present at AC10; 51,000 compounds, 1.2% hits; AID 361, 2006; Potency, µM; in the data active means potency below about 11 µM; inconclusive means mostly about 12 µM to 25 µM; inactive means weaker than that;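 the screen sought inhibitors and activators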;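 further: potency means the concentration at half of the fitted maximal effect; scaled between full activation by ribose 5 phosphate and full inhibition by luteolin; about four in five hits inhibit and the cells do not say which; series up to 57 µM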
Starred values were filed as active, the others as inactive; i = inactive; ? = inconclusive; . = not tested or not shown. Not all compounds are listed; count on the stated rates, not on these rows.

SMILES,YjeE inh,PK Bst
Cc1cccc(C)c1NC(=O)COC(=O)c1nonc1N,i,>57
Nc1ccccc1SCc1cn2ccccc2n1,i,.
COc1ccc2c(c1)c(C(=O)CN1CCC3(CC1)OCCO3)c(C)n2C,i,>57
COc1cccc2cc(-c3nc(-c4cccs4)cs3)c(=O)oc12,i,>57
CCOC(=O)c1cccc(NC(=O)N[C@@H](C)C(=O)OC)c1,i,>57
CCOCCCNCC(=O)Nc1ccc(OC(F)(F)F)cc1,i,>57
COC(=O)CCS(=O)(=O)c1cc(Cl)ccc1Cl,i,.
Oc1ccc(C=Nc2ccc3ncccc3c2)c(O)c1,.,>25.6
CC(=O)NCCOc1ccc2oc3ccccc3c2c1,i,.
COc1ccc(NC2c3ncccc3C(=O)N2Cc2ccccc2)c(OC)c1 (stereo not drawn),i,>57
c1ccc(-c2nnn(CCN3CCCCC3)n2)cc1,i,.
CCOc1ccccc1C(=O)N(C)Cc1cc2ccccc2[nH]c1=O,i,>57
Cc1ccc(-c2noc(CCC(=O)Nc3cccc(C#N)c3)n2)cc1,i,>57
CC(=O)O[C@]12CC[N@+]3(C)CCCC[C@@H]3[C-]1Nc1ccccc12,i,.
CC(=O)N[C@@H]1CONC1=O,i,.
CC(C)CC(=O)N1CCN(Cc2cccc(F)c2)CC1,i,.
Clc1ccc(CSc2nnc(Cn3cnc4ccccc43)o2)cc1,i,>57
CCN(CC)S(=O)(=O)c1cc(C(=O)OC)ccc1Cl,i,.
CCN(CC)c1ccc2cc(NC(=O)CCC(=O)O)c(=O)oc2c1,i,i
Cc1noc(C)c1S(=O)(=O)N1CCC(C(=O)N2CCC(C)CC2)CC1,i,>57
CCCCCSc1nnc(C)c(=O)[nH]1,i,>57
CCCn1c(=O)c(-c2ccccc2)c(O)c2ccccc21,i,>57
FC(F)(F)c1ccc(Sc2nnc(-c3cccs3)n2CC2CCCO2)nc1 (stereo not drawn),i,>57
COc1ccccc1NC(NC(=O)c1ccco1)C(=O)c1ccccc1 (stereo not drawn),i,.
CN(CC(=O)O)CC(=O)O,i,.
CCCC[C@@H]1C[C@H]1C(NC(=O)c1cccs1)c1ccc(-c2ccccc2)cc1 (stereo partly drawn),i,.
CCC(C)NC(=O)CN(c1cc(C)ccc1OC)S(C)(=O)=O (stereo not drawn),i,>57
COC(=O)C1C(c2ccccc2)C(C(=O)N2CCOCC2)C1c1ccccc1 (stereo not drawn),i,>57
Cc1ccc(CN2C(=O)C(C)(C)Oc3ccc(C(=O)N4CCCCC4)cc32)cc1,i,>57
O=C(Nc1ccc(OC(=O)c2cccs2)cc1)c1ccco1,i,i
CCCCSc1nnc(CCCCCNC(=O)OC(C)(C)C)o1,i,>57
COc1ccccc1-c1nnc2sc(COc3ccc(F)cc3)nn12,i,>57
COCCNC(=O)C(c1cccc(OC)c1)N(C(=O)Cn1nnc2ccccc21)c1cccnc1 (stereo not drawn),i,>57
CCn1c(C(C)NC(=O)Cc2ccccc2)nc2ccccc21 (stereo not drawn),i,>57
Cc1ccc(C(=O)C2C(c3cccs3)NC(=O)NC2(O)C(F)(F)F)cc1 (stereo not drawn),.,>25.6
COc1cccc(C2NC(=O)NC(C)=C2C(=O)Nc2cccc(C)c2C)c1 (stereo not drawn),i,>57
Cc1cc(C)n(-c2nc3ccccc3nc2N2CCN(S(=O)(=O)c3ccc(F)c(C)c3)CC2)n1,i,>57
Cc1ccccc1N1C(=O)CC(N2CCC(C(N)=O)CC2)C1=O (stereo not drawn),i,>57
COc1ccc(CNc2nc3c(c(=O)n(Cc4ccc(Br)cc4)c(=O)n3C)n2C)cc1,i,>57
O=C1Nc2ccc(S(=O)(=O)N3CCCCCC3)c3cccc1c23,i,.
CCN1CCN(c2nc3c(c(=O)[nH]c(=O)n3C)n2CCCSc2ncccn2)CC1,i,>57
CC(C)OCCCNc1ncnc2c1[nH]c1ccccc12,i,.
COc1ncc2nc(-c3ccc(F)cc3)c(=O)n(-c3ccccc3)c2n1,i,.
CCCOc1ccccc1-c1nc(SCCC(=O)O)n[nH]1,i,>57
O=C(Nc1ccccn1)C(NS(=O)(=O)c1cccc2nsnc12)c1ccccc1 (stereo not drawn),i,>57
COc1ccc(CNC(=O)COC(=O)c2ccc3c(c2)OCCO3)cc1,i,>57
COc1ccc(O)c(-c2cc(-c3cccs3)[nH]n2)c1,i,?
CCC(=O)Nc1cccc(NC(=O)c2cc3ccccc3o2)c1,i,.
c1ccc(C2C3=C(Nc4ncnn42)c2ccccc2CCC3)cc1 (stereo not drawn),i,>57
CCCCCCNC(=O)C(C#N)c1nc2ccccc2nc1N1CCCC1 (stereo not drawn),i,>57
CCCCC(=O)Nc1ccc(C(=O)N2CCN(C)CC2)cc1,i,>57
NCC(=O)N[C@H](CO)C(=O)O,i,.
CCc1nc2scc(-c3ccccc3)c2c(=O)n1N,i,?
O=C1C(=O)N(CCO)C(c2cccc(F)c2)/C1=C(\O)c1ccc(Cl)cc1 (stereo not drawn),i,>57
O=C(CSc1nc2ccccc2c(=O)n1Cc1ccco1)c1ccccc1,i,>57
O=C(O)CC1SC(=O)N(Cc2ccccc2)C1=O (stereo not drawn),i,>57
Cn1c(SCC(=O)N2CCCc3ccccc32)nnc1-c1cccs1,i,>57
Cc1ccc2c(CC(=O)N3CCc4ccccc43)coc2c1,i,>57
CC1=NN(c2ccccc2)C(=O)[C@@H]1N=Nc1ccc(S(N)(=O)=O)cc1,i,.
COC(=O)C1=C(C)N=C2SCCC(=O)N2C1c1cccs1 (stereo not drawn),i,.

(further entries)
SMILES,YjeE inh,PK Bst
O=C(c1noc2c1CCCC2)N1CCCCC1,i,>57
Cc1cccc(N2CCN(C(=O)c3ccncc3)CC2C)c1 (stereo not drawn),i,>57
Cc1cc(NC(=O)CSc2nc3cc4c(cc3c(=O)n2CCc2ccccc2)OCO4)no1,i,>57
Cc1ccc(NC(=O)COC(=O)c2ccnn2C)cc1,i,>57
CCCNS(=O)(=O)c1ccc(CCC(=O)Nc2ccc3c(c2)OCO3)cc1,i,>57
NC12CC3CC(C1)CC(CO)(C3)O2,i,>57
CC1(C)Cn2c(nnc2-c2ccccc2)S1,i,>57
CCSc1nc(C)c(CC)c(C)c1C(N)=O,i,>57
Oc1c(Cl)cc(Cl)c2c1NCCC2,i,.
CCn1c(SCC(=O)Nc2nc3ccc(OC)cc3s2)nc2c1c(=O)n(C)c(=O)n2C,i,>57
O=C(CSCC(=O)N1CCOCC1)Nc1ccccc1,i,.
CCNc1ncc2nc(-c3ccccc3)c(=O)n(CCC#N)c2n1,i,.
CCOC(=O)C1CCN(S(=O)(=O)c2ccc(Br)c(OCC)c2)CC1,i,>57
COc1ccc(NC(=O)Nc2nnc(C(C)C)s2)cc1,i,>57
Cn1c(C(=O)N(Cc2ccccc2)Cc2cccs2)cc2sccc21,i,>57
Nc1c(C(=O)NC2CCCC2)c2nc3ccccc3nc2n1/N=C/c1cccnc1,i,>57
O=C(CC(C(=O)O)N1CCOCC1)Nc1ccc(Cl)cc1 (stereo not drawn),i,>57
CN(C)c1ncc2nc(CCc3ccccc3)c(=O)n(CCc3ccccc3)c2n1,i,.
O=C(Cn1ncc2c(=O)oc3ccccc3c21)N1CCc2ccccc2C1,i,.
CCOC(=O)C1CCN(c2c(NCc3ccc(C(=O)NC(C)CC)cc3)c(=O)c2=O)CC1 (stereo not drawn),i,>57
CCOCCOc1nc2c(c(=O)n(C)c(=O)n2C)n1Cc1ccc(C)cc1,i,.
Cc1onc(-c2ccccc2Cl)c1C(=O)Nc1ccc(F)c(F)c1,i,>57
CCc1nc(SCC(=O)Nc2cc(C)on2)c2c(=O)n(C)c(=O)n(C)c2n1,i,.
FC(F)(F)c1cc(CO[C@@H]2CCCN[C@H]2c2ccccc2)cc(C(F)(F)F)c1,i,.
COc1ccc(N2CCN(C(=O)CSc3nc4c(c(=O)n(C)c(=O)n4C)n3C(C)C)CC2)cc1,i,>57
COc1ccc(NC(=O)CN2CCN(c3ccc(Cl)cc3)CC2)c(OC)c1,i,>57
Cc1cccc(C)c1OC[C@@H](N)C(C)C,i,.
CCCn1nc(C(=O)NCCc2ccc(S(N)(=O)=O)cc2)c2ccccc2c1=O,i,>57
C=Cc1c(C)c2cc3nc(cc4[nH]c(cc5nc(cc1[nH]2)C(C)=C5CCC(=O)O)c(CCC(=O)OC)c4C)[C@@]1(C)C3=CC=C(C(=O)OC)[C@H]1C(=O)OC (tested in a mixture with another compound),i,.
Cc1ccc2oc(=O)c3cnn(CC(=O)N(CCCN4CCOCC4)Cc4ccco4)c3c2c1,i,.
N#C/C(=C\N1CCNC1=S)C(=O)c1ccc2ccccc2c1,i,.
COc1ccc(C(=O)N2CCN=C2c2ccccc2)cc1OC,i,.
C=CCSc1nc2ccccc2n1Cc1nnc(-c2cccs2)o1,i,>57
CCCC(=O)Nc1ccc(NC(=O)c2cccc(OC)c2)nc1,i,.
O=C1NC(=O)C2C3c4ccccc4C(c4ccccc43)C12 (stereo not drawn),i,>57
O=C(Cn1cnc2c(nnn2-c2ccccc2)c1=O)N1CCC(Cc2ccccc2)CC1,i,.
O=c1c2ccccc2nnn1CSc1ncnc2ccccc12,i,>57
CCCN(CC1CC1)S(=O)(=O)c1ccc(S(N)(=O)=O)cc1,i,.
CCc1ccc(N2CC(C(=O)OCC(=O)Nc3cc(C)on3)CC2=O)cc1 (stereo not drawn),i,>57
O=C1CC(C(=O)N(c2ccc(F)cc2)C(C(=O)NC2CCCC2)c2ccccn2)CS1 (stereo not drawn),i,>57
CCC(=O)Nc1cccc(NC(=O)COc2ccc(OC)cc2)c1,i,.
CN(C)CCCN1C(=O)C(=O)/C(=C(/O)c2ccccc2)C1c1ccccn1 (stereo not drawn),.,>25.6
O=C(O)CCC(=O)N1CCc2cc(S(=O)(=O)NC3CCCC3)ccc21,i,>57
Cc1noc(C)c1C(=O)Nc1ccccn1,i,>57
Cc1c(C(=O)NCC(C)C)sc2nc(-c3ccc(F)cc3)cn12,i,.
CC1(C)CC(=O)c2cc(C(=O)N3CCCCC3)c(=O)n(-c3ccc(Cl)cc3)c2C1,i,>57
O=C(COC(=O)Cc1ccc(S(=O)(=O)N2CCOCC2)s1)NCc1ccccc1,i,>57
CC(C)(C)NC(=O)NC(=O)COC(=O)C1CC(=O)N(Cc2ccccc2)C1 (stereo not drawn),i,>57
Cc1ccc(C2/C(=C(/O)c3ccc(Cl)cc3)C(=O)C(=O)N2CC2CCCO2)o1 (stereo not drawn),i,.
CCOC(=O)c1sc(C)c(C(N)=O)c1NC1=NCCCCC1,i,>57
COc1cc(C2NC(C(=O)O)CS2)ccc1OCc1ccccc1C#N (stereo not drawn),i,.
C[C@@H](NCc1cc(Br)cc2[nH]c(=O)c(=O)[nH]c12)P(=O)(O)O,i,.
O=C(NCCN1CCOCC1)c1ccc2c(c1)ncn2C1CCCCC1,i,>57
O=C(CN1C(=O)c2ccccc2S1(=O)=O)N1CCOCC1,i,>57
Cc1cc(C)n(C(=O)CNC(=O)Cc2ccccc2)n1,i,>57
O=c1c2c3c(sc2nc2n1CCCCC2)CCCC3,i,.
COc1ccccc1-c1cc(-c2cc(Cl)ccc2O)n[nH]1,.,>11.4
CCCCCCOC(=O)C(C#N)c1nc2ccccc2nc1N1CCN(CC)CC1 (stereo not drawn),i,>57
c1ccc([C@H](c2cccc3c2ccc2ccccc23)[C@H](c2ccccc2)c2cccc3c2ccc2ccccc23)cc1,i,.
COc1ccc(-c2nn(C)c3sc(C(=O)N4CCOCC4)cc23)cc1OC,i,>57

Next section (2 carried over from the part before).
SMILES,YjeE inh,PK Bst
c1ccc([C@H](c2cccc3c2ccc2ccccc23)[C@H](c2ccccc2)c2cccc3c2ccc2ccccc23)cc1,i,.
COc1ccc(-c2nn(C)c3sc(C(=O)N4CCOCC4)cc23)cc1OC,i,>57
CC(=O)c1cccc(NC(=O)CCNS(=O)(=O)c2cccc3nsnc23)c1,i,?
COc1ccc(Cl)cc1S(=O)(=O)N1CCN=C1C,i,.
CCOC(=O)N1CCC(n2c(SCC(=O)NCc3ccccc3)nc3ccccc3c2=O)CC1,i,>57
Cc1oc(-c2ccccc2F)nc1CS(=O)(=O)CC(=O)NCCN(C)C1CCCCC1,i,.
C=CCn1c(SCC(N)=O)nc(C)cc1=O,i,>57
CCCOc1cccc(NC(=O)c2c(-c3ccccc3)noc2C)c1,i,>57

5 of the compounds above, with the structure last:
YjeE inh | PK Bst | Compound
i | . | COc1ccc(Cl)cc1S(=O)(=O)N1CCN=C1C
i | >57 | CCOC(=O)N1CCC(n2c(SCC(=O)NCc3ccccc3)nc3ccccc3c2=O)CC1
i | . | Cc1oc(-c2ccccc2F)nc1CS(=O)(=O)CC(=O)NCCN(C)C1CCCCC1
i | >57 | C=CCn1c(SCC(N)=O)nc(C)cc1=O
i | >57 | CCCOc1cccc(NC(=O)c2c(-c3ccccc3)noc2C)c1

Compound activity (PubChem BioAssay)
